NPR1 antag: blocks ANP-stimulated signaling of human Npr1 receptor; P16066; HEK293 hNpr1 GloSensor cGMP, ANP-stimulated luminescence; Potency, µM (titrated, usually from 46.3 µM), without a hit: top-dose activity change, negative = inhibition, hits mostly inhibitors; 76,000 compounds, 1.6% hits; AID 1347048; active = well fitted inhibition curve with a large enough effect; inconclusive = small, poorly fitted or top-dose-only effect; inactive = no such curve, though single readings can be large or run the other way;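 note: nearly all actives have a fitted effect of over 60% in size; nearly all hits also lower the signal before the agonist is added; a reference antagonist and vehicle were the controls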
Target sequence (P16066 whole entry, looked up): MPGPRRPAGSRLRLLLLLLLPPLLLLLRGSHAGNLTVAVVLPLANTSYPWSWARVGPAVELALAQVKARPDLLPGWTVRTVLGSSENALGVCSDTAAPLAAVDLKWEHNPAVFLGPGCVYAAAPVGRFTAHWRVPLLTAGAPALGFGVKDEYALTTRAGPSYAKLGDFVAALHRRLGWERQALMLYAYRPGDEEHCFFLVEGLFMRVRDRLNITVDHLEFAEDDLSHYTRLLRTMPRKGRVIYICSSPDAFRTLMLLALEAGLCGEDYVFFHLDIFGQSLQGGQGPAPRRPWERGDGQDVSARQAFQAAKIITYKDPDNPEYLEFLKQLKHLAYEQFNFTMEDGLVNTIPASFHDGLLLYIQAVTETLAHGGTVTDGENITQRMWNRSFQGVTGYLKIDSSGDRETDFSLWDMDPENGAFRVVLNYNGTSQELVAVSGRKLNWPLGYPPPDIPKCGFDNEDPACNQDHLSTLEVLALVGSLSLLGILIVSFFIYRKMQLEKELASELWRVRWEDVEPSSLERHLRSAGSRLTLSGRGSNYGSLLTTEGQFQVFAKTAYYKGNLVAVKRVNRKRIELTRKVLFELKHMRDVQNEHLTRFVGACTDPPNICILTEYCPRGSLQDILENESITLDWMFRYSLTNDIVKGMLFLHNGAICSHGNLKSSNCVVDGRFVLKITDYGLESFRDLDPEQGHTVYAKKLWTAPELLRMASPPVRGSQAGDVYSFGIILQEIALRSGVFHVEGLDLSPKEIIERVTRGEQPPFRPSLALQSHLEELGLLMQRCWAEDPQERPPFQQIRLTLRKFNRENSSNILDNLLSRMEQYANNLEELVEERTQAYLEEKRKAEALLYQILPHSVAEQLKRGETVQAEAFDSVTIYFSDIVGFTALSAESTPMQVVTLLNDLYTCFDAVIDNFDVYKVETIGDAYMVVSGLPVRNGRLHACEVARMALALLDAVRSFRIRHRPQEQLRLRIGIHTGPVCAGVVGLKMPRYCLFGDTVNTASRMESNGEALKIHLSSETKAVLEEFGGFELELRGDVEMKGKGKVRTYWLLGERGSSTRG
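HEK293 cells stably expressing human Npr1 and cGMP GloSensor pGS-40F, loaded 2 h with 2% GloSensor reagent, given compound 30 min at room temperature. Luminescence read before and 20 min after 0.1 nM hNppA.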
The depositor's hits bear a star; ? = inconclusive; [ ] = another dose, or the depositor's remark. % is set by controls: 0 for no effect and ±100 for the full control effect; potency is the fitted concentration of half-maximal effect. Some of the compounds tested; rates above refer to the full screens.

NPR1 antag,Molecule
-2%,CCN(C(=O)CC1COc2ccc(C(=O)N(C)C)cc2N1C)C1CCOCC1 (configuration not stated)
2%,Cc1cccc(OCC(=O)N2CC3CC(C2)[C@H]2CCCC(=O)N2C3)c1 (some centres not stated)
-16%,COc1ccc(Cl)cc1C(=O)NC1CCCN(c2cc(-c3ccccc3)[nH]n2)C1 (configuration not stated)
-4%,COc1ccc(C2(C(=O)NCCC3CCN(C(=O)Nc4ccc(C)cc4)CC3)CC2)cc1
-20%,CN1C(=O)c2ccc(NC(=O)C[C@H]3NC(=O)c4ccccc4NC3=O)cc2C1=O
2%,COc1cccc(C(=O)N2CCC3(CC2)N(C)C(=O)CS3(=O)=O)c1
-3%,COc1cc(SC)ccc1C(=O)N[C@H]1CCN2C(=O)[C@H](CC3CCCCC3)NC(=O)[C@@H]2C1
32µM*,CC(C)(C)c1csc(NC(=O)c2ccc3c(c2)OCCN(C2CCC2)C3)n1
1%[70.6 µM],COc1ccc(CN2CCC(N3CCCNC3=O)CC2)cc1
-5%,O=C1Nc2ccccc2CC12CCN([S+](=O)([O-])c1ccccc1)C2 (configuration not stated)
-1%[70.6 µM],Cc1ccc(S(=O)(=O)N2CC[C@H](c3nnc(-c4ccccc4)o3)C2)cc1
-19%,CCN(CC)C(=O)c1cc2c(s1)CCC(C(=O)NC)C2 (configuration not stated)
-30%,O=C(Cc1cccnc1)N1CCCC(c2nc(CCOc3ccc(F)cc3)no2)C1 (configuration not stated)
5%[70.6 µM],Cc1cc(F)cc(CN2CCOc3cc([S+](N)(=O)[O-])ccc3C2)c1
5%,CCNC(=O)Nc1ccc(OCC(=O)NCc2cc(F)cc(F)c2)nc1
1%,Cc1ncccc1C(=O)N1CCCC(c2nc(-c3ccccc3)no2)CCNC(=O)CC1 (configuration not stated)
5%,Cc1nc2ccc(CC(=O)N[C@H](c3ccccn3)C3CC(O)C3)cc2[nH]1 (some centres not stated)
1%,Cc1c(Cl)cccc1Nc1ncncc1-c1nc(-c2ccccc2)no1
?,Cc1nn(-c2ccccc2[N+](=O)[O-])c(C)c1[C@@H]1C=C[C@@H](NS(=O)(=O)c2ccccc2)C1
4%,CCn1ccc(C(=O)N2CCC(N3CC(OCC4CC4)C34CCOCC4)CC2)n1 (configuration not stated)
-3%,CN1C(=O)[C@H]2CN(Cc3cccc(Br)c3)C[C@H]2C1=O
-5%[122 µM],CC(=O)N(C)Cc1cccn1C
2%,CN1CCN(Cc2cn(Cc3ccccc3)nc2-c2ccc3c(c2)OCO3)CC1
-25%[70.6 µM],Cn1ccnc1CN1C(=O)CO[C@H]2CN(CCCc3ccccc3)C[C@H]21
1%,COc1ccc(-c2nc(C3CC(=O)N(c4ccc(C)cc4)C3)no2)c(C)c1 (configuration not stated)
-3%,O=C(NC1CCN(C(=O)N2CC3CC(C2)[C@H]2CCCC(=O)N2C3)CC1)C1CC1 (some centres not stated)
0%,COc1ccc(N2CC(c3noc(-c4cc(OC)c(OC)c(OC)c4)n3)CC2=O)cc1OC (configuration not stated)
-16%,C[C@H]1[C@@H]2[C@@H](O)C([C@H](C)C(=O)N3CCC(Cc4ccccc4)CC3)CC[C@@]2(C)CC[C@@H]1NC(=O)c1cnccn1 (some centres not stated)
-1%,CN(CC1CCOCC1)S(=O)(=O)c1cccc(Cl)c1
-2%,COc1ccc2[nH]c3c(c2c1)CCN(C)C31CCN(C(=O)c2ccoc2)CC1
15%,CCCc1ncncc1C(=O)N[C@H]1CN(S(C)(=O)=O)C[C@@H]1C(C)C
2%,N[C@H]1CN(C(=O)c2ccccc2Oc2ccccc2)C[C@@H]1C1CC1
4%[70.6 µM],COc1ccc(-c2noc(C(=O)O)c2[C@@H](C)NC(=O)Nc2ccccc2)cc1
-1%,CN1CC2(CCN(C(=O)NCc3ccccc3)CC2)CC1C(=O)N1CCOCC1 (configuration not stated)
-21%,CCCn1c(C)cnc1CC1CCN(C(=O)C2(c3ccc(OC)cc3)CC2)C1 (configuration not stated)
3%,O=C1NCCCCCCN(S(=O)(=O)c2ccc3c(c2)CCC3)[C@H]2CCCC[C@@H]12
0%,COc1ccccc1C(=O)N1CCC(CC(=O)NC2CC2)C1 (configuration not stated)
6%,Cn1c(CN2CCOCC2)nnc1C1CCCN(c2ccc(C#N)cn2)C1 (configuration not stated)
2%[70.6 µM],COCc1ccc2c(c1)c(OC(C)(C)C(=O)N1CCN(C)CC1)nn2Cc1cccnc1
9%,COc1cccc(C(=O)N2C[C@@H](Oc3cccnc3)C[C@@H]2C(=O)N2CCOCC2)c1
3%,CC(=O)Nc1cccc(C(=O)NCc2nnc3ccc(-c4ccc(Cl)cc4)nn23)c1
-2%,Cc1ccccc1CC(=O)N1CCC2(CC1)NC(=O)N(c1cccc(F)c1)N2
2%,CC(=O)N1CCc2sc(C(=O)NCc3ccc(F)cc3Cl)cc2C1
-4%,CC1=C[C@@H](CNS(=O)(=O)c2cccs2)[C@H](C(C)C)C[C@H]1CC(=O)NCc1ccc(C#N)cc1
-2%[70.6 µM],O=C1COc2ccc(-c3cncnc3)nc2CN1Cc1ccc(F)cc1
8%,Cc1cccc2nnc(N3CCCN(C(=O)c4ccccc4Cl)CC3)n12
-22%,Cc1ccc(C(=O)NC2CCN(c3cc(-c4ccccc4)[nH]n3)CC2)s1
-7%,CCN1c2cc(C(=O)Nc3cc(OC)cc(OC)c3)ccc2C(=O)N2CCCCC21 (configuration not stated)
4%,Cc1ccc(CN2CCC3(CC2)CCN(Cc2cccnc2)CC3CO)s1 (configuration not stated)
4%,CC[C@@H]1[C@@H](NC(=O)CC2Cc3ccccc3C2)[C@@H]2CCO[C@H]12
2%,COC(=O)CNC(=O)N1CCC(OC2CCN(Cc3ccccc3)CC2)CC1
0%[70.6 µM],COc1ccc(-c2cn3c(n2)CO[C@@H](CNC(=O)C(C)(C)C)C3)cc1
1%,COc1ccc(CC(=O)Nc2ccc3c(c2)CN(Cc2cccc(OC)c2OC)C(=O)C(C)O3)cc1 (configuration not stated)
-13%,COc1ccccc1CNC(=O)CN1CCCc2nc(C)ncc2C1=O
2%,CC1CN(c2cccc(Cl)c2)C(=O)CN1C(=O)c1ccc2n[nH]nc2c1 (configuration not stated)
3%,O=C(Nc1nc2c(s1)CCC2)C1CC(=O)N(c2n[nH]c3ccccc23)C1 (configuration not stated)
-1%,O=c1c2c(nc3cc[nH]n13)CN(S(=O)(=O)c1cccc(C(F)(F)F)c1)CC2
8%[70.6 µM],CN1Cc2c(cc(N3CCOCC3)nc2-c2cnn(C)c2)C1=O
-6%,Cc1cccc(-c2nc(C3CC(=O)N(c4ccc(Cl)cc4)C3)no2)c1 (configuration not stated)
-2%[70.6 µM],COc1cccc(-c2ncc3c(n2)OCCN(Cc2ccc(F)cc2F)C3=O)c1OC

Three structures out of the list, sorted by formula weight, largest number first:
NPR1 antag,Molecule
1%,COc1ccc(CC(=O)Nc2ccc3c(c2)CN(Cc2cccc(OC)c2OC)C(=O)C(C)O3)cc1 (configuration not stated)
2%,CC1CN(c2cccc(Cl)c2)C(=O)CN1C(=O)c1ccc2n[nH]nc2c1 (configuration not stated)
-22%,Cc1ccc(C(=O)NC2CCN(c3cc(-c4ccccc4)[nH]n3)CC2)s1

(further entries)
NPR1 antag,Molecule
-16%,Cc1noc(-c2cccc(OC3CN(C(=O)NCc4ccc(F)cc4)C3)c2)n1
5%,Cc1ccc(-n2ccnc2-c2cc3n(n2)CCNC3)cc1N1CCCC1=O
4%,CCCCN1C(=O)C(CC(=O)NC(C)C)Sc2ncccc21 (configuration not stated)
?,COc1ccc(NC(=O)N2CCCC(Cc3noc(-c4ccccc4)n3)C2)cc1 (configuration not stated)
0%,O=C(CCC1CCCC1)NC1CCN(c2cnn(Cc3ccccc3)c(=O)c2)CC1
3%[70.6 µM],CC(C)(C)CN[C@@H](Cn1cc(F)c(=O)[nH]c1=O)C(=O)O
0%,COC(=O)[C@H]1CCCN1C(=O)[C@@H]1C[C@H](NC(=O)Nc2ccc(F)cc2F)CN1C(=O)CSC
2%[70.6 µM],CC(=O)Nc1cccc(-c2cc3c(ccn3Cc3ccncc3)c(N3CCOCC3)n2)c1
3%,N#Cc1cccc(C(=O)N2CCCCCCNC(=O)CC2c2ccccc2)c1 (configuration not stated)
-1%[70.6 µM],CC(C)N1C(=O)CO[C@H]2CCN(Cc3ccccn3)CC[C@@H]21
-5%,CN1C(=O)c2cccn2CC1CNC(=O)CC1CCCC1 (configuration not stated)
?,c1ccc(Cn2ccnc2C2CCN(c3ncnc4ccsc34)CC2)nc1
-19%,Cc1noc(-c2nc(-c3cccc(F)c3)no2)n1
-1%,CNC(=O)Nc1ccc(C)n(CC(=O)NCc2cccc(Cl)c2)c1=O
?,O=C(NC[C@H]1O[C@H](Cc2cc(-c3ccc(F)cc3)on2)CC[C@@H]1O)c1ccccc1F
-1%,O=C1CCC2(CNC(=O)c3ccc4ncccc4c3)CCCC=C2N1 (configuration not stated)
3%,O=C(CN1C(=O)NC2(CCOCC2)C1=O)Nc1ccc(Br)cc1F
-3%,COc1cc(OC)cc(C(=O)N[C@@H]2CN(S(C)(=O)=O)C[C@H]2CN(C)C)c1
6%,COCCN1C(=O)CS(=O)(=O)C12CCN(C(=O)c1cc(F)ccc1F)CC2
0%,CCOc1ccccc1C(=O)N1CCC[C@H]1c1nc(-c2ccccc2)no1
-6%,O=C(c1[nH]nc2c1CCc1ccccc1-2)N1CCC(c2noc(-c3ccncc3)n2)C1 (configuration not stated)
-22%,O=C(NCc1cccc(Cl)c1)c1ccc(Cn2ccn3nc4c(c3c2=O)CCCC4)cc1
?,Cc1ccc(-c2ccc(O)cn2)c2cccnc12
-19%,CCCS(=O)(=O)N1CC(Oc2ccccc2-c2nc(C3CC3)no2)C1
-2%,Cc1ccccc1NC(=O)N1CCC(CCNC(=O)c2cc(F)ccc2F)CC1
-2%,O=C(CCNC(=O)c1cnccn1)NC1CCCc2c1[nH]c1ccc(F)cc21 (configuration not stated)
-3%,O=c1[nH]c(C2CCN(Cc3ccc(F)cc3)CC2)nn1Cc1ccccc1
8%,CC(=O)N1CCN(Cc2cc(F)ccc2Cl)CC(O)C1 (configuration not stated)
-4%,Cc1cc2nc3n(c(=O)c2n1CC(=O)Nc1ccccc1)CCC3
-1%,COc1ccc(CC(=O)N2CCC(Oc3ncccc3C(=O)N3CCCCC3)C2)cc1 (configuration not stated)
?,CCCN(CCC)C(=O)c1ccc(CN2C(=O)NC3(CCS(=O)(=O)CC3)C2=O)cc1
2%,Cc1nnc2n1CCC(NS(=O)(=O)c1ccccc1F)CC2 (configuration not stated)
8%,O=C(c1cnccn1)N1CCCC(c2noc(COc3ccccc3F)n2)C1 (configuration not stated)
4%,C(=C\c1ccccc1)/CN1CCN(Cc2cc3n(n2)CCCNC3)CC1
2%[70.6 µM],CC1=C[C@@H](CNC(=O)C(=O)O)[C@H](C(C)C)C[C@H]1CC(=O)O
-19%[70.6 µM],CN(C(=O)C1CCCC1)C1CCc2ccccc2C1 (configuration not stated)
0%,O=C(CC1CCN(S(=O)(=O)c2cccnc2)C1)NCc1ccccc1 (configuration not stated)
-2%,O=C(NC1CCCN(c2cc(-c3ccc(F)cc3)[nH]n2)C1)c1nccc2ccccc12 (configuration not stated)
8%,COC[C@@H]1CN(S(=O)(=O)c2ccccc2)C[C@H]1c1nc(C)no1
-12%,CCNc1ncc(CN2CCN(c3cccc(C(F)(F)F)c3)CC2)cn1
5%,Cn1c(N2CCN(C(=O)Cn3nc4c(cc3=O)CCCCC4)CC2)nc2ccccc21
3%,COCCN(Cc1nccs1)C(=O)c1cnc(-c2ccccn2)[nH]c1=O
12%[70.6 µM],O=C1NCCCN1C1CCN(Cc2ccc(F)cc2)CC1
1%,Cc1ccc(C(=O)N2CCc3nc(C)nc(-c4ccc(Cl)cc4)c3CC2)cc1
5%,COc1cccc(-c2cccc(C(=O)N[C@H]3C[C@@H]4OCC[C@H]34)c2)c1
11µM*,N#Cc1cccnc1N1CCC(NC(=O)c2ccc3nccn3c2)CC1
-1%,O=C1NCCC[C@@H]1NC(=O)[C@@H]1CN(C(=O)C2CCNCC2)CCN1C(=O)c1ccccc1
-4%,COc1nc2c(cc1CNC(=O)C1CC1(C)C)C(=O)N(C1CCCC1)C2 (configuration not stated)
7%,CN1C(=O)c2cccn2CC1CN (configuration not stated)
3%,O=C(NCc1cccc(Cl)c1)C1CCN(C(=O)c2ncn3c2COC(c2ccc(F)cc2)C3)CC1 (configuration not stated)
-25%,COc1ccc(CCN(Cc2ccccc2F)CC2(O)CCCNC2)cc1 (configuration not stated)

Molecules above that have an NH in an aromatic ring (13):
NPR1 antag,Molecule
-16%,COc1ccc(Cl)cc1C(=O)NC1CCCN(c2cc(-c3ccccc3)[nH]n2)C1 (configuration not stated)
5%,Cc1nc2ccc(CC(=O)N[C@H](c3ccccn3)C3CC(O)C3)cc2[nH]1 (some centres not stated)
-2%,COc1ccc2[nH]c3c(c2c1)CCN(C)C31CCN(C(=O)c2ccoc2)CC1
-22%,Cc1ccc(C(=O)NC2CCN(c3cc(-c4ccccc4)[nH]n3)CC2)s1
2%,CC1CN(c2cccc(Cl)c2)C(=O)CN1C(=O)c1ccc2n[nH]nc2c1 (configuration not stated)
3%,O=C(Nc1nc2c(s1)CCC2)C1CC(=O)N(c2n[nH]c3ccccc23)C1 (configuration not stated)
-1%,O=c1c2c(nc3cc[nH]n13)CN(S(=O)(=O)c1cccc(C(F)(F)F)c1)CC2
3%[70.6 µM],CC(C)(C)CN[C@@H](Cn1cc(F)c(=O)[nH]c1=O)C(=O)O
-6%,O=C(c1[nH]nc2c1CCc1ccccc1-2)N1CCC(c2noc(-c3ccncc3)n2)C1 (configuration not stated)
-2%,O=C(CCNC(=O)c1cnccn1)NC1CCCc2c1[nH]c1ccc(F)cc21 (configuration not stated)
-3%,O=c1[nH]c(C2CCN(Cc3ccc(F)cc3)CC2)nn1Cc1ccccc1
-2%,O=C(NC1CCCN(c2cc(-c3ccc(F)cc3)[nH]n2)C1)c1nccc2ccccc12 (configuration not stated)
3%,COCCN(Cc1nccs1)C(=O)c1cnc(-c2ccccn2)[nH]c1=O
